Source: PubChem
TNAP act DEA: activates human TNAP at intermediate phosphate acceptor concentration. P05186. purified TNAP, CDP-star luminescence, 100 mM DEA, 30 min; active compounds read high; scale: 0 levamisole-inhibited, 1 vehicle-only enzyme. activation factor at 20 µM. 64,000 tested, under 10 active. AID 813;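 active = activation factor of at least 2 at 20 µM, relative to controls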
S1P3 agonist: agonists of human S1P3 receptor | Q99500 | S1P3 NFAT-BLA reporter cells, agonism, FRET ratio; relative to 1 µM S1P, basal subtracted | activation, % at 4.5 µM | hit rate 0.1% among 60,000 | AID 373;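 active = activation above the screen-wide mean plus 3 SD, cut at about 4.5% in these data, passing the limit was not always enough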; note: some compounds called inactive have numbers as strong as hits
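Assay system: stable CHO line with human S1P3, Gα16, NFAT-BLA reporter; Detection: FRET β-lactamase substrate fluorescence, excitation 405 nm, 460/535 nm emission ratio, background-subtracted; Read-out: percent activation versus median 1 µM S1P response, basal-subtracted, per plate; Incubation: cells plated overnight, compound 4 h 37 °C, substrate 2 h RT.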
E coli RNAP: blocks E. coli RNA polymerase transcription; P0A8V2; fluorescence transcription assay; inhibition, %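 (tested at 10 µM)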; hit rate 0.2% among 62,000; in the data active = inhibition above about 20%;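 note: 0% = enzyme without compound and 100% = no enzyme blank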
HEK293 NFkB inh: inhibitors of the PMA/ionomycin-induced NF-kB reporter in HEK293 cells | HEK-293 NF-kB luciferase reporter, luminescence | inhibition, % at 3 µM | hit rate 0.21% among 62,000 | AID 465;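 active = inhibition above the mean of all tested compounds plus 3 SD, cut at about 40% in these data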;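 note: 0% = stimulated DMSO wells and 100% = 10 µM reference inhibitor 5653914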
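Reagent: PMA plus ionomycin mix as NF-kB-activating stimulus. Assay system: NF-kB luciferase reporter HEK-293 cells. Technique: luminescence from luciferase substrate reagent. Incubation: 1 h compound pre-incubation, 16 h PMA/ionomycin at 37 °C. Benchmarks: DMSO only as uninhibited control, 10 µM reference inhibitor as full inhibition. Repeats: tested once.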
S1P1 ag-PAM: S1P1 (human) agonism or agonism potentiation | P21453 | S1P1 CRE-bla cells, forskolin, beta-lactamase FRET, potentiator mode; S1P1 agonist co-added at EC20, 2 nM; 100% = saturating reference agonist, 0% = basal | activation, % at 9.5 µM | hit rate 0.57% among 56,000;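 active = activation above a cutoff set at the mean activation of all tested compounds plus 3 SD, cut at about 54% in these data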;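 note: forskolin at 4 µM as EC80 and the EC20 agonist is SEW2871; 100% = SEW2871 at its EC100 plus forskolin at EC80; some compounds past the cut are filed as inactive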
Target sequence (P21453 whole entry, looked up): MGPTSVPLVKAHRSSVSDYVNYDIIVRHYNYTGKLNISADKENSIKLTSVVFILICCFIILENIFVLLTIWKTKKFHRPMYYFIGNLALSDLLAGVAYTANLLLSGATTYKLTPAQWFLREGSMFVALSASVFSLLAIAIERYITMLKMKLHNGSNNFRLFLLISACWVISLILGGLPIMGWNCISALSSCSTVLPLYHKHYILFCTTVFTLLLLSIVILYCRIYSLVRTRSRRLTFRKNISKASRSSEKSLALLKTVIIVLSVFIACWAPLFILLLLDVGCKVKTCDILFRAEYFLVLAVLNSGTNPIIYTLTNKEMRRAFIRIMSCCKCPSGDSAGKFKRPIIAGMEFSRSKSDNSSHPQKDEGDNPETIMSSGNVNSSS
Jurkat tox 60K: cytotoxicity toward Jurkat cells. Jurkat E6.1 viability, ATP luminescence, 48 h. inhibition, % at 4 µM. hit rate 1.2% among 56,000. AID 463;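 active = inhibition above the mean inhibition of all tested compounds plus 3 SD, cut at about 28% in these data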
* marks the source's active call; other numbers are inactive results; . = not tested or not shown. A portion of the library, so the mix of outcomes need not match the whole.

[1] CN1CCN2c3ccccc3Cc3ccccc3C2C1 (centres undefined)
[2] CCOC(=O)[C@H](CCc1ccccc1)N[C@@H](C)C(=O)N1CCC[C@H]1C(=O)O
[3] CC(=O)Nc1nnc(S(N)(=O)=O)s1
[4] CCN1CCN(C(=O)N[C@@H](C(=O)N[C@@H]2C(=O)N3[C@@H]2SC(C)(C)[C@@H]3C(=O)O)c2ccccc2)C(=O)C1=O
[5] CCCCCCCCNC(C)C(O)c1ccc(SC(C)C)cc1 (centres undefined)
[6] C[C@@H]1C[C@H]2[C@@H]3CCC4=CC(=O)C=C[C@]4(C)[C@@]3(F)[C@@H](O)C[C@]2(C)[C@H]1C(=O)CO
[7] CC[C@]1(O)CC2CN(CCc3c([nH]c4ccccc34)[C@@](C(=O)OC)(c3cc4c(cc3OC)N(C=O)[C@H]3[C@@](O)(C(=O)OC)[C@H](OC(C)=O)[C@]5(CC)C=CCN6CC[C@]43[C@@H]65)C2)C1 (some centres undefined)
[8] CN1CCN(C2=Nc3ccccc3Oc3ccc(Cl)cc32)CC1
assay / entry,1,2,3,4,5,6,7,8
TNAP act DEA,0.8,0.9,1,0.9,0.9,0.9,0.9,0.9
S1P3 agonist,-1.1,-3.5,-0.2,-2.7,-2.5,1.2,-6.9,-0.2
E coli RNAP,13,10,10,1,6,6,7,6
HEK293 NFkB inh,.,.,.,.,.,.,.,.
S1P1 ag-PAM,-12,-17,-8,20,-9,18,-30,6
Jurkat tox 60K,.,.,.,.,.,.,.,.

Compound profiles (already shown). Order of screens: TNAP act DEA | S1P3 agonist | E coli RNAP | HEK293 NFkB inh | S1P1 ag-PAM | Jurkat tox 60K
`CCCCCCCCNC(C)C(O)c1ccc(SC(C)C)cc1` (centres undefined) is entered as 0.9 | -2.5 | 6 | . | -9 | .
`CC(=O)Nc1nnc(S(N)(=O)=O)s1` is entered as 1 | -0.2 | 10 | . | -8 | .

(next part)
[9] CC(=O)OCC(=O)[C@@]1(O)CC[C@H]2[C@@H]3CCC4=CC(=O)CC[C@]4(C)[C@H]3C(=O)C[C@@]21C
[10] OC(CCN1CCCC1)(c1ccccc1)C1CCCCC1 (centres undefined)
[11] CC(C)(Oc1ccc(CCNC(=O)c2ccc(Cl)cc2)cc1)C(=O)O
[12] COCCc1ccc(OCC(O)CNC(C)C)cc1 (centres undefined)
[13] COc1ccc(NS(=O)(=O)c2ccc(N)cc2)nn1
[14] O=C(O)Cc1ccc(-c2ccccc2)cc1
[15] Clc1ccc2c(c1)C(N1CCNCC1)=Nc1ccccc1O2
[16] CC1(C)S[C@@H]2[C@H](NC(=O)[C@H](C(=O)O)c3ccsc3)C(=O)N2[C@H]1C(=O)O
assay / entry,9,10,11,12,13,14,15,16
TNAP act DEA,0.9,0.9,0.9,0.8,0.9,0.9,1,0.9
S1P3 agonist,-4.5,-3.5,-0.6,-1.0,0.3,-1.5,-3.3,-2.5
E coli RNAP,6,6,7,10,8,9,3,7
HEK293 NFkB inh,.,.,.,.,.,.,.,.
S1P1 ag-PAM,21,1,-4,3,-13,6,-14,6
Jurkat tox 60K,.,.,.,.,.,.,.,.

[17] CC(=O)[C@@]1(O)CC[C@H]2[C@@H]3C[C@H](C)C4=CC(=O)C=C[C@]4(C)[C@@]3(F)[C@@H](O)C[C@@]21C
[18] CC1(C)S[C@@H]2[C@H](NC(=O)Cc3ccccc3)C(=O)N2[C@H]1C(=O)O
[19] Oc1c(I)cc(I)c2cccnc12
[20] CC(C)NCC(O)COc1cccc2[nH]ccc12 (centres undefined)
[21] CCOC(=O)C1=C(C)NC(C)=C(C(=O)OC)C1c1cccc(Cl)c1Cl (centres undefined)
[22] CN1CCN(C2=Nc3cc(Cl)ccc3Nc3ccccc32)CC1
[23] CCc1cccc2c3c([nH]c12)C(CC)(CC(=O)O)OCC3 (centres undefined)
[24] CCCc1cc(=O)[nH]c(=S)[nH]1
assay / entry,17,18,19,20,21,22,23,24
TNAP act DEA,0.9,0.9,0.9,0.9,0.9,0.9,0.9,0.9
S1P3 agonist,7.6,-3.5,-2.2,-2.3,-1.2,-3.3,-2.3,-2.4
E coli RNAP,5,4,9,8,7,8,8,6
HEK293 NFkB inh,.,.,.,.,.,.,.,.
S1P1 ag-PAM,20,14,-6,6,-22,-10,-3,-6
Jurkat tox 60K,.,.,.,.,.,.,.,.

[25] CC(=O)[C@H]1[C@H](C#N)C[C@H]2[C@@H]3CC=C4C[C@@H](O)CC[C@]4(C)[C@H]3CC[C@@]21C
[26] CCCC1O[C@@H]2C[C@H]3[C@@H]4CCC5=CC(=O)C=C[C@]5(C)[C@H]4[C@@H](O)C[C@]3(C)[C@]2(C(=O)CO)O1 (some centres undefined)
[27] COc1ccc2c(c1OC)C(=O)O[C@@H]2[C@H]1c2c(cc3c(c2OC)OCO3)CCN1C
[28] CC(=O)OCC(=O)[C@@]12OC(C)(C)O[C@@H]1C[C@H]1[C@@H]3C[C@H](F)C4=CC(=O)C=C[C@]4(C)[C@@]3(F)[C@@H](O)C[C@@]12C
[29] CNC(=O)Oc1ccc2c(c1)[C@]1(C)CCN(C)[C@@H]1N2C
[30] CCNc1c2c3c(cccc3n(C)c1=O)C(=O)c1ccccc1-2
[31] O=c1[nH]c(=O)n([C@H]2C[C@H](O)[C@@H](CO)O2)cc1F
[32] CCC(CO)NCCNC(CC)CO (centres undefined)
[33] CCOC(=O)CSc1nc(CC)nc2ccccc12
[34] CCN(CC)CCOC(=O)C1(C2CCCCC2)CCCCC1
[35] O=C(CCCN1CCC(O)(c2ccc(Cl)cc2)CC1)c1ccc(F)cc1
assay / entry,25,26,27,28,29,30,31,32,33,34,35
TNAP act DEA,0.9,0.9,1,0.9,0.9,0.8,0.9,1,0.9,0.9,0.7
S1P3 agonist,-1.7,-0.1,-4.7,0.0,-4.0,-0.9,-1.3,0.6,1.1,0.6,-2.6
E coli RNAP,12,-1,5,4,2,-1,4,4,11,11,4
HEK293 NFkB inh,.,.,.,.,.,23,.,24,7,.,.
S1P1 ag-PAM,2,2,-23,1,0,35,4,3,-26,-5,14
Jurkat tox 60K,.,.,.,.,.,9,.,2,-5,.,.

Seven structures out of the list, ordered by count of non-hydrogen atoms, smallest number first:
[32] CCC(CO)NCCNC(CC)CO (centres undefined)
[31] O=c1[nH]c(=O)n([C@H]2C[C@H](O)[C@@H](CO)O2)cc1F
[33] CCOC(=O)CSc1nc(CC)nc2ccccc12
[30] CCNc1c2c3c(cccc3n(C)c1=O)C(=O)c1ccccc1-2
[25] CC(=O)[C@H]1[C@H](C#N)C[C@H]2[C@@H]3CC=C4C[C@@H](O)CC[C@]4(C)[C@H]3CC[C@@]21C
[35] O=C(CCCN1CCC(O)(c2ccc(Cl)cc2)CC1)c1ccc(F)cc1
[28] CC(=O)OCC(=O)[C@@]12OC(C)(C)O[C@@H]1C[C@H]1[C@@H]3C[C@H](F)C4=CC(=O)C=C[C@]4(C)[C@@]3(F)[C@@H](O)C[C@@]12C
assay / entry,32,31,33,30,25,35,28
TNAP act DEA,1,0.9,0.9,0.8,0.9,0.7,0.9
S1P3 agonist,0.6,-1.3,1.1,-0.9,-1.7,-2.6,0.0
E coli RNAP,4,4,11,-1,12,4,4
HEK293 NFkB inh,24,.,7,23,.,.,.
S1P1 ag-PAM,3,4,-26,35,2,14,1
Jurkat tox 60K,2,.,-5,9,.,.,.
